B2AR ag = beta2AR agonists driving receptor internalization, primary screen, cell-based, FAP fluorogen, flow cytometry; Beta-2 adrenergic receptor (Homo sapiens), P07550; Am2.2-beta2AR cells; reference of the scale not given here; response, % (test concentration not listed); hit rate 0.43% among 340,000; AID 504454, 2011;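 active means response above a set limit, near 3 SD of response in nonfluorescent compounds, cut at about 42% in these data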;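 further: stock transfer was 100 nL into about 11 µL; a reference agonist was the positive control; negative values mostly stem from fluorescent compounds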
Ecoli rRNA inh = reduced GFP signal of wild-type E. coli, primary screen, bacterial rRNA inhibitor project, GFP/RFP fluorescence, OD600, single point | E. coli WT GFP vs humanized-ribosome RFP mutants, 24 h; hits give low values; DMSO median 0, no signal -100 | GFP signal change (wild-type ribosome), % (concentration not given with the values) | hit rate 1.6% among 350,000;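 active means significant combined selectivity score with lowered wild-type GFP, culture density cut under 30%, mutant RFP and density less affected; inactive means any of these conditions unmet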; further: one replicate is shown; some compounds called inactive have numbers as strong as hits
Ecoli growth = E. coli growth inhibition, primary screen, OD600; Escherichia coli growth, 23 h; hits give low values; OD600 absorbance (concentration not given with the values); hit rate 0.21% among 330,000;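 active means OD600 absorbance below the run mean of sample wells minus 3.6 SD, in any replicate, cut at about 0.56 in these data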;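 further: stock transfer was 300 nL into about 60 µL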
ALR inh = inhibitors of human ALR sulfhydryl oxidase, primary screen, biochemical, H2O2 detection, HRP-luminol luminescence, single point; FAD-linked sulfhydryl oxidase ALR (Homo sapiens), P55789; purified ALR, DTT oxidation; inhibition, % (concentration not given with the values); hit rate 3.8% among 290,000; AID 485317, 2010;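 active means mean and each replicate at 75% or more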;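 further: stock transfer was 7.5 nL into about 7.5 µL; 0% = neutral wells and 100% = wells with inactivated enzyme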
Target sequence (P55789 whole entry, looked up): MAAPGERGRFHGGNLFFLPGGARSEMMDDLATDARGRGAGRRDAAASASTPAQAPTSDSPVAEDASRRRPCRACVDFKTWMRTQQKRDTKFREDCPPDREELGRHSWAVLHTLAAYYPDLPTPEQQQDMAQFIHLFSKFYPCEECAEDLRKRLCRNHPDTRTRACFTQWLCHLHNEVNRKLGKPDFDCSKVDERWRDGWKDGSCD
UCH37 DUB inh = inhibitors of human UCH37 deubiquitinase, primary screen, biochemical, Ub-AMC cleavage, fluorescence. purified proteasome/UCH37. inhibition, % (test concentration not listed). hit rate 0.33% among 330,000. AID 588478, 2011;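 active means mean of two replicates above 20%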;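 further: 0% = compound-free wells with enzyme and 100% = wells lacking proteasome; stock transfer was 100 nL into about 20 µL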
Target sequence (Q9Y5K5 whole entry, looked up): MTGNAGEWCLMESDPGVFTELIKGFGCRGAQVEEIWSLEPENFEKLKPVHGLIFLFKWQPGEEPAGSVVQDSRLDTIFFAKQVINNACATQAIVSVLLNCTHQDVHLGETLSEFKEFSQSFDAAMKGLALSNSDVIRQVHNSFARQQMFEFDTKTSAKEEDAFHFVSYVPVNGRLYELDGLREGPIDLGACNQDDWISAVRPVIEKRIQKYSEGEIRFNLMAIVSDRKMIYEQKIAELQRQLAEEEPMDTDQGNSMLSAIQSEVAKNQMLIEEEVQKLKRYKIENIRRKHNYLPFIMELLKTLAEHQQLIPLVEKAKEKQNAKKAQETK
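Schedule: 30 min plus 25 min, room temperature / Material: human UCH37 within purified proteasomes / Technique: AMC fluorescence intensity at 355/460 nm / Buffer or medium: pH 7.4 Tris-HCl (50 mM) with ovalbumin, ATP-MgCl2, DTT / Controls: wells without proteasome as full block, compound-free enzyme plus substrate as uninhibited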
FGF22 binding = binders of human FGF22 protein, primary screen, FGF22 synaptogenesis inhibitor project, biophysical, thermal shift, single point; Fibroblast growth factor 22 (Homo sapiens), Q9HCT0; recombinant FGF22 thermal shift, SYPRO orange fluorescence; percent of sucrose octasulfate shift, DMSO zero; calls only at 9.99 µM; hit rate 1.5% among 340,000; AID 651658, 2012;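 active means melting point raised past a set limit in the mean and every replicate; three in four hits are not shown here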
HNF4A DNA FP = change in binding of human HNF4A to DNA, primary screen, biochemical, fluorescence polarization, FITC-DNA; hit rate 0.3% among 360,000; 1 h; activity change, % at 10 µM; in the data active means activity change above about 30%, passing the limit was not always enough;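 further: controls were the assay level and a saturating level of protein; the project sought stronger binding though the title names inhibitors; some compounds called inactive have numbers as strong as hits; positive values seem to mean higher polarization but the record does not say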
Target sequence (P41235 whole entry, looked up): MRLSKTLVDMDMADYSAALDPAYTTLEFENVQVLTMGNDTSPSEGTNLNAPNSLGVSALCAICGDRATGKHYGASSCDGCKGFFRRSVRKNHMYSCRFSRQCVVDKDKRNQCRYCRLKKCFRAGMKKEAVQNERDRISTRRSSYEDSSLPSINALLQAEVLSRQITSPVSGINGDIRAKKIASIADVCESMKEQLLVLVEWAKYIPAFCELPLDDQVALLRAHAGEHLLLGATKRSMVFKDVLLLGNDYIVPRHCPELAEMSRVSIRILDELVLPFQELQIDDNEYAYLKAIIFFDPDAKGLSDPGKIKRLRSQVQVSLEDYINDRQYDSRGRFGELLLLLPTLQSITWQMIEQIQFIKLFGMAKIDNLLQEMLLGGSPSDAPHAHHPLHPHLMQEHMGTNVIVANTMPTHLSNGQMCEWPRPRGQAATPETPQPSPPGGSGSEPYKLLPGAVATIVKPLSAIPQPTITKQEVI
Ecoli rRNA inh OD600 = second read-out of Ecoli rRNA inh, no call of its own (marks repeat the call); OD600 change, %; measured here: OD600 growth;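 optical density of the mix in the first replicate; 0 = DMSO median and -100 = no signal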
Ecoli rRNA inh RFP = second read-out of Ecoli rRNA inh, no call of its own (marks repeat the call); RFP signal change, %; measured here: RFP humanized mutant strains;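 first replicate; 0 = DMSO median and -100 = no signal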
* hit, by the source's call; i = inactive; . = not tested or not shown; & = joins results of further samples.

SMILES	B2AR ag	Ecoli rRNA inh	Ecoli rRNA inh OD600	Ecoli rRNA inh RFP	Ecoli growth	ALR inh	UCH37 DUB inh	FGF22 binding	HNF4A DNA FP
CC(/C=N/NC(=O)c1nn(C)c(C)c1Br)=C\c1ccccc1	-16	-22	-25	-9.2	.	-3	.	i	0.8
COc1ccccc1-c1ocnc1C(=O)N1CCN(S(=O)(=O)c2ccc(NC(C)=O)cc2)CC1	-5	-4	-7	-1.8	0.66	.	4.3	i	-3.8
Brc1ccccc1-c1nnc2sc(-c3ccc4c(c3)OCCO4)nn12	4	.	.	.	0.67	-2	-4.0	.	4.0
Cc1cc(C)c2c(n1)nn1c(NCCCN3CCOCC3)cc(C)nc21	6	.	.	.	0.68	.	-29	.	-0.4
Cc1cc(C(=O)NCc2ccc(S(N)(=O)=O)cc2)ccc1[N+](=O)[O-]	-1	.	.	.	0.71	-3	0.4	.	3.4
CCOC(=O)CSc1nnc(NC(=O)c2ccc3c(c2)OCO3)s1	19	13	17	0.6	0.68	0	0.6	i	1.1
CCCn1c(SCC(=O)NCC(=O)Nc2ccc(F)c(F)c2F)nc2ccccc2c1=O	2	6	20	-2.0	0.69	14	2.5	i	0.9
COC(=O)c1cc(NC2c3ccccc3C(=O)N2c2cccnc2)cc(C(=O)OC)c1 (stereo not drawn)	-3	0	0	0.7	0.76	1	-7.2	i	-2.4
Cc1ccc2oc(C(=O)N3CCN(Cc4nccn4C)CC3)c(C)c2c1	-2	1	2	1.5	0.67	0	0.2	i	-2.2
CC(=O)c1cc(-c2ccc(F)cc2)n(CCC(=O)Nc2cccnc2)c1C	-7	.	.	.	0.66	0	1.9	.	-4.3

Next part, overlapping the part above by two compounds.
SMILES	B2AR ag	Ecoli rRNA inh	Ecoli rRNA inh OD600	Ecoli rRNA inh RFP	Ecoli growth	ALR inh	UCH37 DUB inh	FGF22 binding	HNF4A DNA FP
Cc1ccc2oc(C(=O)N3CCN(Cc4nccn4C)CC3)c(C)c2c1	-2	1	2	1.5	0.67	0	0.2	i	-2.2
CC(=O)c1cc(-c2ccc(F)cc2)n(CCC(=O)Nc2cccnc2)c1C	-7	.	.	.	0.66	0	1.9	.	-4.3
CCCCNC(=O)c1ccc(CS(=O)(=O)c2ccc(OC)cc2)o1	-11	0	0	-2.1	0.73	.	5.8	i	2.0
CCCOP(=O)(c1ccc(N(C)C)cc1)C(O)c1ccc(Cl)cc1Cl (stereo not drawn)	10	-34	-44	-3.4	0.69	.	1.2	i	4.2
CC(C)(C)C1=C(C#N)C(c2ccc3c(c2)OCO3)C(C#N)=C(N)O1 (stereo not drawn)	2	.	.	.	0.75	14	0.4	.	-1.5
COC(=O)c1ccc(N2CCOCC2)c(NC(=O)c2ccc3c(c2)OCO3)c1	8	8	7	0.5	0.7	-2	0.9	.	0.2
CCn1cnc2c1c(=O)n(CC(=O)Nc1ccc3c(c1)OC(F)(F)O3)c(=O)n2Cc1ccccc1	-3	.	.	.	0.7	.	-4.2	.	-1.8
O=C(NCCCN=C1NS(=O)(=O)c2ccccc21)c1ccc(S(=O)(=O)N2CCOCC2)cc1	4	8	10	-0.5	0.69	-10	-0.1	i	1.8
C=CCNCC#CCOc1ccc(OC)cc1	4	.	.	.	0.72	-9	0.6	.	3.1
OC[C@@H]1CN(Cc2ccc3c(c2)OCO3)C[C@H](n2cnc3c(N4CCCC4)ncnc32)O1	.	-7	1	-3.3	.	.	.	i	4.4
COC(C[C@H]1O[C@@H]1C(=O)[C@H](C)OCc1ccccc1)OC	1	11	12	0.5	.	13	1.5	i	-2.7
COc1ccc(N=Cc2sc(O)c3ccccc23)cc1	-84	.	.	.	0.67	35	-2.9	.	80
Cc1ccc2nsnc2c1S(=O)(=O)N1CCN(C(=O)C2CCCO2)CC1 (stereo not drawn)	-1	.	.	.	0.68	1	3.4	.	2.1
O=c1[nH]c(CN2CCN(S(=O)(=O)/C=C/c3ccccc3)CC2)nc2cc(Cl)ccc12	-5	0	-5	1.8	0.68	-14	-11	i	7.4
CNc1nc2cccnc2s1	3	5	16	-1.0	0.65	9	3.3	i	0.7
CS(=O)(=O)c1nc(-c2ccccc2)cc(-c2ccccc2)c1C#N	7	.	.	.	0.73	17	2.5	.	-1.4
Cc1cc(C)nc(SCc2nnc(SCC(=O)Nc3cc(C(F)(F)F)ccc3Cl)o2)n1	-13	.	.	.	0.71	-2	2.9	.	-1.1
Cc1cc(NC(=O)CSc2nnc(C3CC3)n2Cc2ccccc2)no1	-4	.	.	.	0.71	-5	5.8	.	-2.2
COc1cccc(-c2ccc(-c3noc(-c4cccs4)n3)c(OC)n2)c1	-5	.	.	.	0.71	-8	-1.8	.	-3.4
CC(C)c1nnc(NC(=O)c2ccc(N3C(=O)CCC3=O)cc2)s1	-7	1	11	-2.0	0.66	-34	3.7	i	-1.1
C#CCNc1cc(C)nc2ncnn12	-3	.	.	.	0.61	-1	-0.2	.	-0.5
CCCCOCCCNC(=O)C[C@@H]1C[C@@]2(C(=O)OCC)CCCC=C2N(Cc2ccc(Cl)cc2Cl)C1=O	.	15	-2	0.8	.	.	.	i	0.3
O=C(CCC(=O)OCC(=O)c1ccc(Br)cc1)Nc1ccc(Br)c2cccnc12	5	.	.	.	0.71	-1	1.7	.	-1.7
Clc1ccccc1C1CC(c2ccccc2)=Nc2ccccc2N1 (stereo not drawn)	12	-20*	-10*	6.4*	0.73	.	3.9	i	3.2
CC(=NNC(=S)Nc1ccccc1)c1ccccn1	.	-12	-43	1.8	.	.	.	i	-3.8
CC(C)(C)c1ccc(C(=O)NCCCNC(=O)c2ccccn2)cc1	5	-5	-19	-3.2	0.68	1	0.9	i	1.4
CC1Cc2ccccc2N1C(=O)CSc1ncccn1 (stereo not drawn)	-1	3	5	-2.5	0.68	26	-0.6	i	3.7
O=C(COc1ncnc2ccccc12)Nc1cc(S(=O)(=O)N2CCOCC2)ccc1Cl	3	10	19	0.8	0.71	-4	4.8	i	4.4
O=C(CN(Cc1cccs1)C(=O)c1csnn1)NC1CCCC1	-2	.	.	.	0.74	-15	-2.1	.	-1.6
COc1ccc(/C(C)=N\NC(=O)CNC(=O)C(c2ccccc2)c2ccccc2)cc1OC	1	1	1	-2.7	.	-10	.	i	2.6
NC(=O)c1ccsc1NC(=O)COC(=O)C1=NNC(=O)CC1	-4	15	6	4.1	0.68	46	1.4	i	-3.6
O=C(COC(=O)c1cnccn1)c1ccc2ccccc2c1	-5	.	.	.	0.69	-14	-12	.	2.9
COc1ccc(CCN2CC(C(=O)N(C)Cc3ccc(C)o3)CCC2=O)cc1 (stereo not drawn)	2	5	5	-0.1	0.63	2	2.1	i	-0.5
CC(O)(CS(=O)(=O)Cc1ccccc1)C(=O)Nc1cccc(C(F)(F)F)c1 (stereo not drawn)	-5	-13	-3	-8.2	0.67	-2	-2.4	i	1.6
Cc1ccc(N=Cc2c(C)[nH]n(-c3ccccc3)c2=O)nc1	-10	6	-1	-4.6	0.69	0	5.1	i	0.5
O=C(Cc1ccc2c(c1)OCCO2)Nc1cc(Cl)ccc1N1CCOCC1	6	3	10	1.4	0.66	.	-3.2	i	-1.1
COc1cccc(S(=O)(=O)N(C)C[C@H]2Oc3ncc(Br)cc3C(=O)N([C@H](C)CO)C[C@H]2C)c1	.	4&0	2&-1	-5.3&-0.8	.	.	.	i	-1.2
Cc1cc(C(=O)NC(=S)Nc2cccc(NC(=O)C(C)C)c2)ccc1[N+](=O)[O-]	2	20	24	5.2	0.69	3	-0.1	i	-4.3
CCN1CCCC1CNC(=O)c1ccccc1Cl (stereo not drawn)	27	.	.	.	0.71	-4	.	.	2.2
Cc1cc(OC(C)C(=O)NCCCN2CCOCC2)c2c(C)c(C)c(=O)oc2c1 (stereo not drawn)	-5	7	4	0.6	0.65	-2	-119	i	0.6
C[C@H](NC(=O)c1ncn2c1C(=O)N(C)CC2)C(=O)OC(C)(C)C	.	-2	9	1.8	.	.	.	i	-1.9
CCOc1ccc(C(O)C(CN2CCOCC2)c2ccccc2)cc1 (stereo not drawn)	1	.	.	.	0.68	-4	-0.5	.	-3.6

Overlap with the part before: 3 entries; new compounds follow.
SMILES	B2AR ag	Ecoli rRNA inh	Ecoli rRNA inh OD600	Ecoli rRNA inh RFP	Ecoli growth	ALR inh	UCH37 DUB inh	FGF22 binding	HNF4A DNA FP
Cc1cc(OC(C)C(=O)NCCCN2CCOCC2)c2c(C)c(C)c(=O)oc2c1 (stereo not drawn)	-5	7	4	0.6	0.65	-2	-119	i	0.6
C[C@H](NC(=O)c1ncn2c1C(=O)N(C)CC2)C(=O)OC(C)(C)C	.	-2	9	1.8	.	.	.	i	-1.9
CCOc1ccc(C(O)C(CN2CCOCC2)c2ccccc2)cc1 (stereo not drawn)	1	.	.	.	0.68	-4	-0.5	.	-3.6
COC(=O)Cn1cnc2scc(-c3ccc(C)c(C)c3)c2c1=O	4	-17	-24	-4.7	0.72	0	0.8	i	-1.0
CCOC(=O)c1cc2c(ccn2-c2ccc(F)cc2)n1CC(=O)N1CCN(C(=O)c2ccco2)CC1	-1	.	.	.	0.79	-1	-4.5	.	3.4
COc1ccc(S(=O)(=O)N2CCCN(CC(=O)C(C)(C)C)CC2)cc1	-1	.	.	.	0.74	-3	-0.2	.	3.0
NC(=O)C1CCN(C(=O)CCn2c(=O)oc3ccccc32)CC1	-147	5	9	2.1	0.72	0	-3.8	i	7.8
CCOc1ccc(S(=O)(=O)N2CN3CCN(C3)C2)cc1	-6	4	3	-0.6	0.66	-6	-0.4	i	-1.5
COc1ccccc1N1CCN(CCCCN2C(=O)C3CCCN3C2=O)CC1 (stereo not drawn)	13	16	21	3.8	.	.	.	i	0.6
Cc1nc(-c2ccc(F)cc2)c(CC(=O)N(C)CC(=O)Nc2ccccc2C(F)(F)F)s1	5	-1	1	-0.9	0.67	0	1.4	i	-0.8
O=C(Cc1ccc(-n2c(=O)c3ccccc3n(Cc3cccc([N+](=O)[O-])c3)c2=O)cc1)NCC1CCCO1 (stereo not drawn)	.	13	10	-9.6	0.7	.	3.9	i	.
CCOC(=O)Cn1c(=O)c2c(nc3n2CCCCN3c2ccc(C)cc2)n(C)c1=O	-6	.	.	.	0.69	4	2.8	.	-0.3
Cc1occc1C(=O)N/N=C/c1ccc(Br)s1	0	-15	-13	-3.4	.	7	.	i	-3.8
CC(C)CCNC(=O)c1cc(-c2ccncc2)nc2ccc(S(=O)(=O)N3CCOCC3)cc12	9	.	.	.	.	-3	-2.5	.	-0.4
Cc1cc(C)nc(SCC(=O)Nc2nonc2N)n1	12	9	-4	-6.5	0.67	9	0.1	i	-3.2
CC(=O)NCCOc1cccc(OCCNC(C)=O)c1	-13	.	.	.	0.72	-9	4.5	.	0.4
CC(=O)c1sc(NC(=O)CCN2C(=O)c3ccccc3C2=O)nc1C	-4	11	16	2.6	0.69	-3	4.4	i	-1.3
CC1=NN(C(=O)Cc2ccccc2)C(O)(c2ccccc2)C1 (stereo not drawn)	12	11	-1	0.9	0.69	8	4.9	i	1.8
Cc1nnc2sc(SCC(=O)N3CCc4ccccc43)nn2c1=O	-86	10	4	2.1	0.65	.	11	i	-0.4

A portion of the library. The share of hits here may be higher or lower than overall.
